Bioassay records as filed in PubChem.
2A firefly: lowers the firefly signal of an FMDV 2A StopGo reporter | HEK cells with a luciferase reporter of 2A StopGo recoding | AID 1745856 | 120,000 tested, 0.23% active | Potency, µM (titrated, usually from 57.5 µM), without a hit: at the highest dose signal change, negative = less light; active = well fitted falling curve with a large enough effect; inconclusive = small, poorly fitted or top-dose-only effect; inactive = no such curve, though single readings can be large or run the other way; note: nearly all actives have a fitted effect of over 60% in size; overnight with compound
StopGo RLuc: FMDV 2A StopGo reporter, Renilla signal; 120,000 tested, 0.32% active; HEK cells with a luciferase reporter of 2A StopGo recoding; AID 1745857; Potency, µM (highest dose often 57.5 µM), without a hit: at the highest dose signal change, negative = less light; active means well fitted falling curve with a large enough effect; inconclusive means small, poorly fitted or top-dose-only effect; inactive means no such curve, though single readings can be large or run the other way; note: nearly all actives have a fitted effect of over 55% in size; overnight with compound
* = called active by the depositor; ? = inconclusive; [ ] = another dose, or the depositor's remark. % is set by controls: 0 for no effect and ±100 for the full control effect; potency is the fitted concentration of half-maximal effect.

compound,2A firefly,StopGo RLuc
Cc1cccc(NS(=O)(=O)c2nnc(NC(=O)c3cccc(C)c3)s2)c1,-2%,62%[activator]
O=C1CN(C(=O)c2cc3cc(Cl)ccc3[nH]2)CCN1,63%[activator],2%
CCN(CC)S(=O)(=O)c1cc(C(=O)Nc2ccc(C(=O)O)cc2)ccc1C,16%,2%
CC(C)CCNC(=O)CCC(=O)N1Cc2ccccc2Oc2ncccc21,2%,-5%
O=C1OCC2=C1C(c1cccc(Cl)c1)CC(=O)N2c1ccc(C(F)(F)F)cc1 (stereo not given),-1%,-5%
COc1cc(NC(=O)c2nc(-c3ccncc3)no2)cc(OC)c1OC,25%,-3%
CCCN1C(=O)C(Cc2nc3ccccc3c(=O)n2-c2ccccc2)c2cc(C)ccc21 (stereo not given),10%,-12%
CC(C(=O)NC(=O)NC1CCCC1)N(C)Cc1cccc(F)c1 (stereo not given),8%,14%
CCOC(=O)C(=O)NCC(c1cccnc1)N1CCN(c2ccccc2)CC1 (stereo not given),-15%,-7%
COc1ccc(Nc2nc3ccccc3nc2NS(=O)(=O)c2ccc(C)cc2)cc1Cl,9%,-6%
Cc1ccc(CSCC(=O)OCC(=O)c2ccc(-c3ccccc3)cc2)cc1,53%[activator],-7%
Cc1ccccc1NC(=O)CSc1ncc(-c2ccc(F)cc2)o1,0%,0%
O=c1[nH]c(CN(Cc2cccs2)CC2CCCO2)nc2scc(-c3ccccc3)c12 (stereo not given),-7%,2%
O=Cc1cccn1-c1cccc(Cl)c1,12%,-14%
COc1ccc(C(=O)CCl)cc1Br,0%,13%
CC(=O)N(CCC1(c2ccccc2)CCOC(C)(C)C1)Cc1ccccc1 (stereo not given),-8%,68%[activator]
Cc1nc2ccc(S(=O)(=O)CCC(=O)Nc3ccc(F)cc3C)cc2s1,-22%,-9%
Cc1ccc(Cl)cc1NC(=O)CCn1cnc2c1c(=O)n(C)c(=O)n2C,8%,2%
CC(N)C(=O)OC(C)(C)Cc1ccc(Cl)cc1 (stereo not given),-11%[11.5 µM],-4%
CCOC(=O)c1c(NC(=O)C2c3ccccc3Oc3ccccc32)sc2c1CCC(CC)C2 (stereo not given),-13%,-11%
CCn1cnc2c1c(=O)n(CC(=O)Nc1ccc(Oc3ccccc3)cc1)c(=O)n2Cc1ccccc1,-11%,-6%
CC(=O)c1nn(-c2ccc(OC(F)(F)F)cc2)nc1Nc1ccccc1,109%[activator],-14%
Cc1ccc(C(=O)NC(C)c2nc(-c3ccc(Cl)cc3)no2)cc1 (stereo not given),0%,26%
O=C(N1CCN(Cc2ccccc2)CC1)C(F)(F)C(F)(F)C(F)(F)C(F)(F)F,5%,-3%
O=C(c1cc2ccccc2oc1=O)N1CCOCC1,172%[activator],0%
CCOC(=O)N1CCN(Cc2nc3cc(NC(=O)C(C)C)ccc3n2C(C)C)CC1,28%,46%[activator]
CC1=C(C)CC(C(=O)Nc2ccc(C(=O)NCc3cccnc3)cc2)C(C(=O)O)C1 (stereo not given),12%,5%
CC(C)(C)NC(=O)c1ccccc1SCc1ccc(F)cc1,18%,5%
Cc1ccc(Cl)cc1Nc1nc2ccccc2c2nncn12,-9%,-14%
O=C(Nc1ccc2nc[nH]c(=O)c2c1)c1ccc(Br)cc1Cl,129%[activator],9%
CCOC(=O)C(c1ccccc1)C(C(=O)OCC)c1ccccc1 (stereo not given),11%,6%
CCOc1ccc(Nc2c(S(=O)(=O)c3ccc(C)cc3)cnc3ccc(F)cc23)cc1,-2%,2%
COc1ccc(NC(=O)N2CCN(S(=O)(=O)c3ccc4c(ccn4C)c3)CC2)c(OC)c1,7%,4%
CC(NC(=O)c1nccnc1N)c1cccc(Br)c1 (stereo not given),-7%,-20%
CCOc1ccccc1NC(=O)CSCc1cc(=O)n2cccc(C)c2n1,-4%,-6%
COc1cc(OC)c(C(=O)Nc2nc(C)c(C(=O)N(C)C)s2)cc1OC,135%[activator],24%
COCCn1c(SCc2ccccc2F)nc2c([nH]c3ccccc32)c1=O,-16%,-9%
Cc1c(C(=O)N2CCCCC2)sc2nc(-c3ccc(F)cc3)cn12,154%[activator],37%[activator]
O=C(Cn1c(-c2ccccc2)cc2ccccc21)N1CCN(CCN2CCCC2)CC1,-12%,-16%
CCOc1ccccc1NC(=O)CSc1nnc(-n2nc(C)cc2C)n1N,5%,18%
CCC(=O)N1c2ccccc2CC1C(=O)NCc1cccc(OC)c1OC (stereo not given),-16%,-8%
O=C(CCS(=O)(=O)c1cc(Br)cc2c1N(C(=O)C1CC1)CC2)N1CCN(c2ccccc2)CC1,23%,-20%
Clc1ccccc1-c1nnc(COc2ccccc2)o1,189%[activator],4%
Cc1ccc(NC(=O)c2nn(-c3ccccc3)c(=O)c3ccccc23)cc1Cl,39%[activator],21%
Cc1cccc(-n2ccnc2SCC(=O)c2ccccc2F)c1,17%,34%[activator]
O=C(Nc1cccc(C(F)(F)F)c1)c1nn(-c2ccccc2)c(=O)c2ccccc12,-1%,-9%
CC(C)Cn1c(-c2ccccc2)cnc1SC(C)C(=O)NC(N)=O (stereo not given),9%,-12%
CCOC(=O)c1ccc(NC(=O)Cn2c(=O)n(-c3ccc(C)cc3)c(=O)c3c2cnn3C)cc1,-22%,-11%

Next part; the last six above are carried over.
compound,2A firefly,StopGo RLuc
Clc1ccccc1-c1nnc(COc2ccccc2)o1,189%[activator],4%
Cc1ccc(NC(=O)c2nn(-c3ccccc3)c(=O)c3ccccc23)cc1Cl,39%[activator],21%
Cc1cccc(-n2ccnc2SCC(=O)c2ccccc2F)c1,17%,34%[activator]
O=C(Nc1cccc(C(F)(F)F)c1)c1nn(-c2ccccc2)c(=O)c2ccccc12,-1%,-9%
CC(C)Cn1c(-c2ccccc2)cnc1SC(C)C(=O)NC(N)=O (stereo not given),9%,-12%
CCOC(=O)c1ccc(NC(=O)Cn2c(=O)n(-c3ccc(C)cc3)c(=O)c3c2cnn3C)cc1,-22%,-11%
O=C(COC(=O)Cc1ccsc1)Nc1ccc(Cl)cc1F,-14%,-15%
CCNC(=O)c1c(NC(=O)Cc2coc3cc(C)ccc23)sc2c1CCCC2,8%,174%[activator]
CCCC(C)NC(=O)c1csc(CC)c1 (stereo not given),148%[activator],8%
O=Cc1ccc(O)c(Cl)c1,2%,1%
CCCN(CCC)C(=O)c1c2c(nc3ccccc13)C(=O)N(C1CCCCC1)C2,0%,12%
COc1ccc2c(C)c(CCC(=O)Nc3ccc(F)cc3)c(=O)oc2c1,-6%,15%
O=C(Cc1ccc(F)cc1)Nc1cccc(-c2nc3cccnc3s2)c1,35%[activator],45%[activator]
CC(C)CNC(=O)OCc1cn(Cc2cc(F)cc(F)c2)nn1,3%,13%
CSc1ccc(/C=C/C(=O)c2cc(C)sc2C)cc1,56%[activator],4%
CCOc1cc(/C=C/c2ncc(C(=O)O)s2)cc(Cl)c1OC,38%[activator],3%
Cc1ccc(C)c(S(=O)(=O)c2cnc(SCC(=O)Nc3ccc(F)cc3F)[nH]c2=O)c1,-12%,-9%
CC1(C)C(=O)N(CC(=O)Nc2ccc(Cl)cc2)c2ccccc21,3%,-1%
COc1cc2ccccc2cc1C(=O)Nc1ccc2oc(=O)ccc2c1,9%,3%
CCOc1nc(-c2ccc(C)cc2)ccc1-c1noc(-c2ccccc2F)n1,10%,-10%
CCOC(=O)c1oc2cc(OC(=O)c3ccccc3OC)ccc2c(=O)c1-c1ccccc1OC,16%,9%
COc1cccc2c1N(C(=O)c1cnc3c(cnn3C(C)C)c1)CCC2,2%,5%
CCCCCCNC(=O)c1cc(-c2cccc(Br)c2)nc2ccccc12,-4%,-2%
CCC(=O)Nc1cc(C(=O)NCc2ccc(C)cc2)ccc1S(=O)(=O)c1ccc(C)cc1,-18%,0%
COc1ccc(CNCC#CC2=CCCCC2)c(OC)c1,7%,14%
CCOC(=O)c1ccccc1NC(=O)CSc1cn(CC(=O)N2CCCCCC2)c2ccccc12,-18%,10%
Cc1ccc(-c2nn3c(=O)cc(CNC(=O)COc4ccc(C(C)(C)C)cc4)nc3s2)cc1,27%,-7%
CC(C)C(=O)c1cn(Cc2ccccc2C#N)c2ccccc12,13%,4%
N#Cc1ccc(NCCNC(=O)Nc2ccccc2)nc1,0%,-41%
Cn1cc(S(=O)(=O)N2CCC(C(=O)Nc3ccc(OC(F)F)c(Cl)c3)CC2)cc1C(N)=O,-9%,-9%
CC(=O)[C@H]1CC[C@H]2[C@@H]3C=CC4=CC(=O)CC[C@@]4(C)[C@@H]3CC[C@]12C,-3%[11.5 µM],?
CCCCN(C)C(=O)c1ccc2c(c1)N(Cc1cccc(F)c1)C(=O)c1ccccc1S2,-10%,78%[activator]
O=C(Nc1sc2ccccc2c(=O)c1-c1ccc2c(c1)OCO2)c1ccc(F)cc1,45%[activator],-13%
CC(C)Cc1nn2c(=O)cc(COC(=O)c3cccc(NC(=O)c4ccc(Cl)cc4)c3)nc2s1,28%,-7%
COc1ccc(-c2nc(C)c(CCNC(=O)Cc3ccc(F)cc3)s2)cc1OC,79%[activator],9%
CC(C)C[C@H](NC(=O)c1cccc2c1-c1ccccc1C2=O)C(=O)O,8%,9%
O=C(NCCc1ccccc1)C(=O)c1c(-c2ccccc2)[nH]c2ccccc12,-4%,72%[activator]
CC(CNC(=O)Cn1c(-c2cccs2)cc2ccccc21)c1ccccc1 (stereo not given),-10%,17%
Cc1ccc(C(=O)c2oc3ccccc3c2NC(=O)Cc2coc3c(C)c(C)ccc23)cc1,15%,-8%
COCCN1C(=O)NC(c2cccc(Cl)c2Cl)C(C(=O)Nc2cc(C)on2)=C1C (stereo not given),-4%,-1%
Cc1nn(C)cc1S(=O)(=O)Nc1ccn(Cc2c(F)cccc2Cl)n1,9%,65%[activator]
CCC/C=N/NC(=O)c1ccc(C)cc1C,0%,6%
CCOC(=O)c1cc2cc(C(=O)O)ccc2[nH]1,-33%,9%
CCOc1ccc(-c2cn3c(n2)sc2cc(C(=O)NC(C)C45CC6CC(CC(C6)C4)C5)ccc23)cc1 (stereo not given),-8%,-17%
C[N+]1(C)[C@@H]2CC(OC(=O)[C@H](CO)c3ccccc3)C[C@H]1[C@@H]1O[C@@H]12 (stereo not given in full),4%,11%
O=C(NC1CCN(S(=O)(=O)c2cccc(F)c2)CC1)C1CCCCC1,16%,15%
COc1ccc(Nc2oc(COc3ccccc3C)nc2C#N)cc1,148%[activator],45%[activator]
Nc1ccccc1OC1CCCCC1,2%,-9%
CC(C(=O)Nc1ccc2[nH]c(=O)[nH]c2c1)N(C)Cc1ccccc1N1CCCCC1 (stereo not given),-6%,-11%
S=C(NCc1ccc(Cl)c(Cl)c1)Nc1ccccc1Cl,7%,182%[activator]
Cc1ccc(-c2nc(S(=O)(=O)c3ccccc3)c(N(C)C)o2)cc1,0%,5%
CCNc1c(NS(=O)(=O)c2ccc(C)c(C)c2)c(=O)oc2ccccc12,43%[activator],18%
Cc1cccc(CNCc2cccs2)c1,43%[activator],-5%
Cc1ccc2[nH]c(C)c(CC(=O)NCC(F)(F)F)c2c1,-9%,-7%
O=S(=O)(NCCS(=O)(=O)N1CCN(c2ccccc2)CC1)c1ccc(Br)cc1,-24%,12%
Cc1cc(C(=O)Cn2c(Cl)nc3c2c(=O)n(C)c(=O)n3C)c(C)n1CCc1ccccc1,28µM*,7.9µM*
COc1ccccc1CNC(=O)c1cnc2c(-c3ccccc3)c(C)nn2c1C,-15%,5%
O=C(Cn1nc(N2CCN(c3ccccc3)CC2)ccc1=O)Nc1ccccc1,27%,2%
O=C(Cn1ccc2cc(Cl)ccc21)Nc1ccc2[nH]ccc2c1,32%,182%[activator]
CCc1ccccc1NS(=O)(=O)c1ccc2nc(-c3ccccc3)[nH]c2c1,0%,128%[activator]
O=C(NCCc1cccs1)c1ccc(Cn2c(SCc3ccccc3)nc3cccnc32)cc1,57%[activator],-2%
CC(=O)NC(C)c1ccc([N+](=O)[O-])cc1 (stereo not given),-8%,-1%

The results go on.
compound,2A firefly,StopGo RLuc
Cc1cc(N2CCN(C)CC2)nc2ccc(NC(=O)Nc3ccccc3Br)cc12,203%[activator],88%[activator]
Cc1noc(C(C)N2CCN(c3oc(-c4ccco4)nc3C#N)CC2)n1 (stereo not given),-7%,-1%
Oc1c(Br)cc(Br)cc1Br,2%[11.5 µM],-9%
CCCCn1nnc(NCc2ccc(Cl)cc2)n1,111%[activator],3%
CN(C)S(=O)(=O)N(CC(=O)Nc1ccc(C(F)(F)F)cc1)c1ccccc1,4%,22%
O=S(=O)(c1ccc2c(c1)OCCO2)c1nc(-c2ccccc2F)oc1NCCN1CCOCC1,0%,222%[activator]
O=C(Nc1cc(Cl)ccc1Cl)C1CC2CC3CCC1C3C2 (stereo not given),-7%,1%
CCOC(=O)c1cc2c(=O)n3ccccc3nc2n(Cc2ccco2)c1=NC(=O)c1ccc(C(C)(C)C)cc1,-14%,-8%
N#Cc1ccc(C(=O)Nc2ccc(NC(=O)c3cc4ccccc4o3)cc2)c(F)c1,7%,-3%
COc1cccc(N2CCN(C(=O)CCS(=O)(=O)c3ccc4c(c3)CC(=O)N4C)CC2)c1,-9%,-15%
